miR-21 FLuc – raises the signal of a miR-21 reporter; HeLa miR-21 FLuc reporter, luciferase, 48 h; Potency, µM (highest dose often 38.3 µM), for inactives: top-dose reporter change, positive = more light; 340,000 tested, under 10 active; AID 2288; active = well fitted rising curve with a large enough effect; inconclusive = small, poorly fitted or top-dose-only effect; inactive = no such curve, though single readings can be large or run the other way;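 also: % of control where 0% means no effect; miR-21 action dims this reporter so a rising signal means less miR-21 action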
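HeLa cells endogenously expressing miR-21, stably carrying CMV-driven firefly luciferase with a downstream miR-21 binding site, 2000 cells/well. Titrations up to approximately 40 uM, 48 hours; luciferase luminescence read.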
GLA inh pH 4.5 – blocks human alpha-galactosidase A at pH 4.5 | purified enzyme, 4-MU-alpha-Gal fluorescence, pH 4.5 | activity change, negative = inhibition, % at 105 µM | 230,000 tested, under 10 active | AID 1467; inconclusive = small, poorly fitted or top-dose-only inhibition, or a rising curve; inactive = flat fitted curve, though single readings scatter; no compound was filed as active;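 also: 0% = full activity with enzyme and -100% = basal without enzyme; dose as in the result columns while the protocol names 77 µM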
Target sequence (P06280 whole entry, looked up): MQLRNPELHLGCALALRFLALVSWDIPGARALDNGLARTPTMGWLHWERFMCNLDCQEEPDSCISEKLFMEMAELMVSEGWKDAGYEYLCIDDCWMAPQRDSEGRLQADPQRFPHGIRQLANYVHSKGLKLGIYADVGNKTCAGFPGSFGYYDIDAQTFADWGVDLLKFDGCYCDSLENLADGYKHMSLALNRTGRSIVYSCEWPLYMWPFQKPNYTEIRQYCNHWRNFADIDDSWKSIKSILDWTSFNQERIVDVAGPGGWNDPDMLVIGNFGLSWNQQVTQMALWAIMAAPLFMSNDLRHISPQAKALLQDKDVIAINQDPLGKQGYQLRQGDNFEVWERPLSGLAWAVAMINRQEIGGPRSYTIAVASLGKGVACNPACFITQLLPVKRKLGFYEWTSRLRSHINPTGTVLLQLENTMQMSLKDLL
Rango release inh – inhibitors of RanGTP-induced Rango-importin beta complex dissociation | O95149+P62826 | Biochemical FRET Rango-importin beta, RanGTP-induced dissociation | Potency, µM (titrated, usually from 46.1 µM), inactives show at the highest dose activity change, negative = inhibition | 340,000 compounds, 0.071% hits; active means falling FRET ratio curve, often poorly fitted, with flat reads before Ran was added; inconclusive means other falling curves, or compound fluorescence or quenching; inactive means flat or rising ratio curve;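 also: potency is read from the fitted curve at half-maximal effect; % of control where 0% means no effect; nearly all actives have a fitted effect of over 45% in size; -100% = wells without RanGTP and RCC1; the record marks most hits as doubtful in a second field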
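Rango FRET biosensor (snurportin-1 IBB flanked by N-terminal EYFP and C-terminal CFP10) at 0.1 uM, with 0.25 uM importin beta in PBS, 1mM DTT, 0.02% Tween-20, 0.1% BSA. 0.6 uM Ran, 2mM GTP and 0.2 uM RCC1 were then added for 45 min at room temperature. Inhibition read as loss of FRET rise.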
Rango-impB inh – Rango-importin beta binding inhibition; 340,000 compounds, 0.031% hits; Rango CFP/YFP FRET sensor + importin beta, 45 min; Q14974; AID 540263; Potency, µM (top dose mostly 92.2 µM), for the others: at the highest dose inhibition of complex formation; active = rising FRET ratio curve, often small or poorly fitted; inconclusive = mostly compound fluorescence or quenching in the first reads; inactive = flat curves in all reads;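 also: potency is read from the fitted curve at half-maximal effect; 0% = DMSO wells and 100% = buffer wells lacking importin beta; nearly all actives have a fitted effect of over 15% in size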
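FRET biosensor Rango (snurportin 1 IBB between N-terminal EYFP and C-terminal Cerulean), 50 nM in PBS/1 mM DTT/0.02% Tween-20/0.1% BSA, preincubated 5 min RT with compound; 0.125 microM importin beta added, 45 min RT, CFP/YFP FRET ratio read.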
An asterisk follows results filed as active; ? = inconclusive; . = no result given; & = joins results of further samples.

A first look:
1. O=C(NCc1cccc(OC(F)(F)F)c1)c1ccc2c(c1)S(=O)(=O)c1cc(Cl)ccc1C2=O
2. CC1=CC2(C)C(C3C(C)=CC2(C)C(=O)C3(C)O)C(C)(O)C1=O (stereo not drawn)
assay / compound | 1 | 2
miR-21 FLuc | . | .
GLA inh pH 4.5 | . | .
Rango release inh | -6% | -5%
Rango-impB inh | 2.3% | -1.1%

Main list, previewed entries included:
1. O=C(NCc1cccc(OC(F)(F)F)c1)c1ccc2c(c1)S(=O)(=O)c1cc(Cl)ccc1C2=O
2. CC1=CC2(C)C(C3C(C)=CC2(C)C(=O)C3(C)O)C(C)(O)C1=O (stereo not drawn)
3. Cc1ccc(NC(=O)CSc2nnc(NC(=O)c3ccc(S(=O)(=O)N4CCOCC4)cc3)s2)cc1
4. Cc1nc2nc(-c3ccc(Cl)cc3)[nH]n2c(=O)c1C
5. CN(C)c1ccc(/C=N/NC(=O)CN(c2ccccc2Cl)S(C)(=O)=O)cc1Br
6. Cc1ccc(C2CC(c3cccs3)=NN2C(=O)CSC2=NN3CCCC(=O)N=C3S2)cc1 (stereo not drawn)
assay / compound | 1 | 2 | 3 | 4 | 5 | 6
miR-21 FLuc | . | . | -3% | -23% | -23% | -3%
GLA inh pH 4.5 | . | . | -3 | -4 | -17 | -12
Rango release inh | -6% | -5% | -9% | . | 1% | -7%
Rango-impB inh | 2.3% | -1.1% | 0.1% | . | -3.0% | -4.1%

7. Cc1ccc(S(=O)(=O)CCC(=O)OCc2ccccc2F)cc1
8. CCC(C)n1c(=S)[nH]c2ccccc2c1=O (stereo not drawn)
9. CC1=C(C(=O)OCC2CCCO2)C(c2ccccc2OC(C)C)C2=C(CC(c3ccco3)CC2=O)N1 (stereo not drawn)
10. Cc1ccc(NC(=O)CSc2nccn2C)cc1F
11. CCOC(=O)c1c(C)n(C)c2cc(Br)c(C)cc12
12. O=S(=O)(NC1CC1)c1ccc(S(=O)(=O)N2CCN3CCCC3C2)cc1 (stereo not drawn)
assay / compound | 7 | 8 | 9 | 10 | 11 | 12
miR-21 FLuc | 1% | -8% | -4% | 6% | -14% | -3%
GLA inh pH 4.5 | -7 | 7 | 4 | . | 2 | 1
Rango release inh | 8% | 4% | ? | -14% | 2% | 3%
Rango-impB inh | -1.3% | -5.2% | ? | -0.7% | 2.6% | 0.1%

13. CCOC(=O)n1c(=O)n(Cc2c(Cl)cccc2Cl)c2ccccc21
14. CCCc1cc(=O)n2[nH]c(-c3cc(OC)c(OC)c(OC)c3)nc2n1
15. COc1ccc(-c2nnc(SCC(=O)NC(=O)Cc3ccccc3)n2C)cc1
16. COc1cccc(-c2cc(C(=O)N3CCN(c4ccccc4OC)CC3)no2)c1
17. Cc1cc(S(=O)(=O)N2CCOCC2)ccc1OCC(=O)NCc1ccco1
18. Cc1cc2nc(C3CCN(C(=S)NCC(C)C)CC3)[nH]c2cc1C
assay / compound | 13 | 14 | 15 | 16 | 17 | 18
miR-21 FLuc | -11% | 0% | . | -10%&-13% | 0% | -24%
GLA inh pH 4.5 | -20 | 1 | . | . | . | -9
Rango release inh | -1% | -7% | -8% | 1% | -6% | 9%
Rango-impB inh | -0.4% | 0.2% | 1.3% | -0.5% | 0.3% | -0.4%

19. c1ccc(CCCCNCC2COc3ccccc3O2)cc1 (stereo not drawn)
20. COCCSc1ccccc1C(=O)Nc1cc(C)ccn1
21. O=C(O)CC(C(=O)NC1CCCCC1)C1CCCO1 (stereo not drawn)
22. COc1ccc(Nc2ccnc(Nc3ccc(OC)cc3)n2)cc1
23. COc1ccc(C(=O)Nc2cc3c(cc2OC)CCCC3)cc1Br
24. CCCCn1c(C(C)NC(=O)COC)nc2ccccc21 (stereo not drawn)
assay / compound | 19 | 20 | 21 | 22 | 23 | 24
miR-21 FLuc | -5% | -10% | 0% | 25% | -25% | -8%
GLA inh pH 4.5 | -8 | 6 | 6 | -9 | -19 | 1
Rango release inh | 2% | 8% | 2% | -1% | 11% | 7%
Rango-impB inh | -1.1% | -2.0% | 2.3% | -2.0% | ? | 1.5%

25. CC(=O)Nc1ccc(S(=O)(=O)NNC(=O)c2ccc([N+](=O)[O-])cc2)cc1
26. COc1cc2[nH]c(=O)n(CCCC(=O)NCCc3ccccc3)c(=O)c2cc1OC
27. CN1C(=O)C(O)(CC(=O)c2cccnc2)c2ccccc21 (stereo not drawn)
28. O=S(=O)(NCCOc1ccccc1Cl)c1ccc2oc3ccccc3c2c1
29. O=C(N/N=C/C=C/c1cccc([N+](=O)[O-])c1)C(O)c1ccccc1 (stereo not drawn)
30. COC(=O)c1c(NC(=O)COC(=O)Cn2cnc3ccccc32)sc(C)c1C
assay / compound | 25 | 26 | 27 | 28 | 29 | 30
miR-21 FLuc | 0% | -11% | -6% | . | 1% | -15%
GLA inh pH 4.5 | . | 13 | -2 | . | -5 | 10
Rango release inh | -10% | 1% | -9% | 22% | 9% | 9%
Rango-impB inh | -0.6% | 2.2% | 3.2% | -2.1% | -0.7% | 1.5%

31. Cc1ccc(S(=O)(=O)N2CCCC(C(=O)NCC3CCCO3)C2)cc1 (stereo not drawn)
32. CCn1cc(C(=O)OCC(=O)Nc2c(C)cccc2C)c(=O)c2ccc(C)nc21
33. O=C1CCc2cc(S(=O)(=O)NCCCC(=O)N3CCN(Cc4ccc5c(c4)OCO5)CC3)ccc2N1
34. CCc1ccc(-n2c(=O)c3ccccc3n(CC(=O)C(C)(C)C)c2=O)cc1
35. O=C(O)c1ccc(NC(=O)c2cn(-c3ccccc3)nc2-c2ccc(Br)cc2)cc1
36. O=c1c(=O)n(O)c2ccccc2n1O
assay / compound | 31 | 32 | 33 | 34 | 35 | 36
miR-21 FLuc | 1% | 0% | -2% | -3% | -8%&-15% | 3%
GLA inh pH 4.5 | . | 5 | -16 | 1 | -12 | 2
Rango release inh | 26% | 4% | -7% | -7% | 0% | -8%
Rango-impB inh | 0.2% | 1.9% | 0.2% | 4.5% | -2.3% | -4.1%

37. O=C(COC(=O)c1ccc(Cl)nc1)NCc1ccco1
38. CCCCn1c(N)c(N(CC(C)C)C(=O)CN(C)Cc2cccc(OC)c2)c(=O)[nH]c1=O
39. CCc1cc(CNC(=O)c2cc(COc3ccc(C)nc3)on2)on1
40. COc1ccc(Cc2nnc(NC(=O)c3cc(OC)cc(OC)c3)s2)cc1
41. Cc1cc2nnc(SCc3ccc4c(c3)OCO4)n2c2ccccc12
42. Oc1ccc(N2CCN(c3ccnc4cc(Cl)ccc34)CC2)cc1
assay / compound | 37 | 38 | 39 | 40 | 41 | 42
miR-21 FLuc | 3% | -3% | -44% | 15% | . | 11%
GLA inh pH 4.5 | 1 | -1 | . | . | . | .
Rango release inh | 3% | 0% | 4% | 11% | -6% | -7%
Rango-impB inh | 2.4% | 0.9% | 1.2% | -1.6% | 2.4% | 0.7%

43. CCOC(=O)/C(C#N)=C/C1=C(N2CCCC2)CC(C)(CC)OC1 (stereo not drawn)
44. COC(=O)c1ccc(OC)c(CSc2nnc(COc3ccc(Cl)cc3)o2)c1
45. CN=c1c([N+](=O)[O-])nn(-c2ccc3c(c2)OCCO3)n1O
46. COc1ccc(-c2c(-c3cc(OC)cc(OC)c3)n(C)c3ccc(-c4cnc(OC)nc4)cc23)cc1
47. COc1ccc(C(c2nnnn2CCc2ccccc2)N2CCN(C)CC2)cc1OC (stereo not drawn)
48. CCC(=O)NC(=S)Nc1ccc(-c2nc3ccccc3s2)cc1
assay / compound | 43 | 44 | 45 | 46 | 47 | 48
miR-21 FLuc | -4% | -8% | -45% | . | -1% | -68%
GLA inh pH 4.5 | 6 | -1 | -2 | . | -7 | 2
Rango release inh | -10% | -10% | 11% | -12% | -4% | 17%
Rango-impB inh | ? | 3.8% | -4.4% | 0.7% | 5.1% | -3.0%

49. COc1ccc(-c2nc(CS(=O)CC(=O)NC3CCCC3)c(C)o2)cc1 (stereo not drawn)
50. COCCCNC(=O)Cn1nc(-c2ccccc2OC)ccc1=O
51. Nn1c(SCC(=O)Nc2ccc3c(c2)OCCO3)nnc(CCC(=O)O)c1=O
52. CN(C)c1cc(NC(=O)CN2CCCC2)c2ccccc2n1
53. CC(C)C(=O)N=C1NC(=O)CS1
54. Cc1ccc(C(=O)N2CCN(C/C=C/c3ccccc3)CC2)cc1S(=O)(=O)N1CCOCC1
assay / compound | 49 | 50 | 51 | 52 | 53 | 54
miR-21 FLuc | -3% | -2% | 0% | -8% | -5% | .
GLA inh pH 4.5 | . | 5 | . | 26 | -24 | .
Rango release inh | 3% | 1% | -10% | 16% | 11% | ?
Rango-impB inh | -2.6% | 5.3% | -3.3% | 5.4% | -0.1% | -4.0%

Reformatted field by field: part of the list above.
(53) CC(C)C(=O)N=C1NC(=O)CS1
  miR-21 FLuc: -5% | GLA inh pH 4.5: -24 | Rango release inh: 11% | Rango-impB inh: -0.1%

(54) Cc1ccc(C(=O)N2CCN(C/C=C/c3ccccc3)CC2)cc1S(=O)(=O)N1CCOCC1
  miR-21 FLuc: . | GLA inh pH 4.5: . | Rango release inh: ? | Rango-impB inh: -4.0%

(49) COc1ccc(-c2nc(CS(=O)CC(=O)NC3CCCC3)c(C)o2)cc1 (stereo not drawn)
  miR-21 FLuc: -3% | GLA inh pH 4.5: . | Rango release inh: 3% | Rango-impB inh: -2.6%

(51) Nn1c(SCC(=O)Nc2ccc3c(c2)OCCO3)nnc(CCC(=O)O)c1=O
  miR-21 FLuc: 0% | GLA inh pH 4.5: . | Rango release inh: -10% | Rango-impB inh: -3.3%

Next structures follow.
55. Cn1cccc1/C=C1\SC(=Nc2cccc(O)c2)NC1=O
56. O=C(Nc1cccc(O)c1)c1cccc(S(=O)(=O)Nc2cccc(O)c2)c1
57. Cc1cccc(NC(=O)CSCC(=O)Nc2nnc(C3CC3)s2)c1
58. CN1CCN(C2CCCCCC2)CC1
59. COc1ccc(CC2SC(=Nc3ccc(F)cc3)NC2=O)cc1 (stereo not drawn)
60. O=c1[nH]nc(Cc2ccccn2)c2ccccc12
assay / compound | 55 | 56 | 57 | 58 | 59 | 60
miR-21 FLuc | -26% | 2% | 0% | -11% | -8% | -8%
GLA inh pH 4.5 | -2 | . | . | 4 | -12 | 4
Rango release inh | -28% | -5% | -13% | -1% | 2% | 15%
Rango-impB inh | ? | -4.7% | -2.3% | -0.1% | 1.3% | -1.3%

61. COc1ccc(/C=C/C(=O)OCC(=O)Nc2ccc(Cl)c(S(=O)(=O)N(C)C)c2)cc1OC
62. O=C(/C=C/NCc1ccc(F)cc1)c1ccccc1
63. COc1ccc(C(=O)CCC(=O)Nc2cc(Cl)c(O)c(Cl)c2)cc1
64. O=c1cc(-c2ccccc2)nc(SCc2ccc(F)cc2)[nH]1
65. Cc1ccc2nc(SCC(=O)N/N=C/c3ccc(C(=O)O)cc3)cc(C)c2c1
66. COc1ccc(C(C(=O)NC2CCCCC2)N(C(=O)c2ccco2)c2ccccc2C(C)=O)cc1OC (stereo not drawn)
assay / compound | 61 | 62 | 63 | 64 | 65 | 66
miR-21 FLuc | 1% | -17% | -9% | 4% | -4% | -2%
GLA inh pH 4.5 | 0 | -1 | . | -5 | . | .
Rango release inh | 13% | -11% | -6% | 9% | 6% | -13%
Rango-impB inh | -2.6% | ? | -2.1% | 6.3% | -0.4% | -0.2%

67. CCc1ccc(C2NC(=S)NC3=C2C(=O)CCC3)cc1 (stereo not drawn)
68. O=C(O)c1cnc(-c2ccccc2)nc1Sc1ccccc1Cl
69. O=C(CSc1nnnn1Cc1ccccc1)NC1CCCCC1
70. Cc1cc2oc3c(c(=O)c2cc1C)C(c1cccc(Br)c1)N(Cc1ccco1)C3=O (stereo not drawn)
71. Cc1cccc(-n2c(CNC(=O)COc3ccccc3)nnc2SCC(=O)Nc2nccs2)c1
72. CC(C)(CNS(=O)(=O)c1cccs1)N1CCOCC1
assay / compound | 67 | 68 | 69 | 70 | 71 | 72
miR-21 FLuc | -5% | -9% | 2% | -2% | 6% | .
GLA inh pH 4.5 | 3 | 0 | 1 | -1 | -2 | .
Rango release inh | 17% | 2% | -6% | -9% | 3% | -16%
Rango-impB inh | 3.1% | 2.7% | -0.4% | -1.4% | 2.3% | 1.9%

An excerpt. The share of hits here may be higher or lower than overall.
